ClpP mod – qHTS Assay for Activators of ClpP; ATP-dependent Clp protease proteolytic subunit (Bacillus subtilis (strain 168)), P80244; purified B. subtilis ClpP, FRET peptide cleavage, 20 min; Potency, µM (titrated, usually from 57.5 µM), for inactives: top-dose activity change, negative = active; 340,000 compounds, 1.9% hits; AID 651965, 2013; active = well fitted falling curve with a large enough effect; inconclusive = small, poorly fitted or top-dose-only effect; inactive = no such curve, though single readings can be large or run the other way; further: the source files actives as falling curves though it sought activators and does not explain the sign; nearly all actives have a fitted effect of over 65% in size; many hits overshoot -100%
Target sequence (P80244 whole entry, looked up): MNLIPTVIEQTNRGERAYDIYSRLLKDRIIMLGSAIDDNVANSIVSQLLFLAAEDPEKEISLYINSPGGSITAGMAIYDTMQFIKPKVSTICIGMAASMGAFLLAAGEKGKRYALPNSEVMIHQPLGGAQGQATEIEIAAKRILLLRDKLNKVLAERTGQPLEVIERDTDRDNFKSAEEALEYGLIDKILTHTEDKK
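Buffer: 100 mM Tris/HCl pH8, 100 mM KCl, 0.05% low protease BSA, 2.5% glycerol, 0.01% Tween-20. ClpP 10 microg/mL final; 20 min RT; delta FRET normalized to ADEP and DMSO controls.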
An asterisk follows results filed as active; & = joins results of further samples. Potency means the concentration at half of the fitted maximal effect. Not all compounds are listed; count on the stated rates, not on these rows.

SMILES	ClpP mod
CCCNC(=O)c1cc(C2CCCCN2C(=O)c2ccc3ccccc3c2)on1 (stereo not drawn)	-0.2%
COc1cc(CN2C(=O)C(C)ON=C2c2ncccc2C)cc(OC)c1 (stereo not drawn)	0.6%
O=C(NCc1cccs1)c1ccc2sc(COCCO)nc2c1	-1.5%
COc1ccc2[nH]c(C)c(C(=O)CN(C)CC(OC)OC)c2c1	-1.9%
CSc1nc(=O)[nH]c2nc[nH]c12	-17%
CCCN1CNc2c(c(=O)[nH]c(=S)n2CCc2cccc(Cl)c2)C1	-0.8%
Cc1cccc(C)c1NC(=O)C1c2ccccc2OCC(=O)N1Cc1ccc2c(c1)OCO2 (stereo not drawn)	1.1%
CCc1nc2ccc(C(=O)NCc3ccccc3OC)cn2c1N(C)Cc1ccc(OC)cc1	1.3%
NC1CCc2ccccc21 (stereo not drawn)	-0.6%
COc1cc(C(O)c2nc(-c3ccccc3OC)cs2)ccc1F (stereo not drawn)	-0.3%
COCCNC(=O)C1(C)CCCN(Cc2cn(C)c3ccccc23)C1 (stereo not drawn)	-1.7%
O=C1NC[C@H](CCCCN2C[C@H](Cc3ccc(O)cc3)N(CCc3ccc(O)cc3)C(=O)C2=O)N(Cc2ccccc2)C1=O	-9.7%

2 entries drawn at random from the list so far, as already listed:
SMILES	ClpP mod
COc1ccc2[nH]c(C)c(C(=O)CN(C)CC(OC)OC)c2c1	-1.9%
Cc1cccc(C)c1NC(=O)C1c2ccccc2OCC(=O)N1Cc1ccc2c(c1)OCO2 (stereo not drawn)	1.1%

Carrying on:
SMILES	ClpP mod
Nc1ccccc1C(=O)NN=Cc1cccnc1	0.7%
COc1ccc(NC(=O)c2cc(-c3cc(F)ccc3OC)n[nH]2)c(OC)c1	-11%
CN(C)c1ccc(/C=C/c2ccnc3ccccc23)cc1[N+](=O)[O-]	-0.3%
Oc1c(C(Nc2ccccn2)c2ccccc2)ccc2cccnc12 (stereo not drawn)	2.6%
O=C(NCCN1CCC(n2c(=O)[nH]c3ccccc32)CC1)c1cccc(F)c1	1.9%
CC(C)C1C(=O)N(Cc2cn(CCC3OCCO3)nn2)CCS(=O)(=O)N1Cc1ccc(-c2ccccc2Cl)cc1 (stereo not drawn)	0.4%
CCCNC(=O)C1(C)CCN(C(=O)c2cccc(C(F)(F)F)c2)C1 (stereo not drawn)	-1.7%
Cc1c(C(=O)NCc2ccc(C#N)cc2)sc(=O)n1Cc1ccccn1	0.7%
CCCc1c(Cc2cccc(F)c2)ncn1Cc1cccc(-c2ccccc2)c1	-1.5%
CCOC(=O)[C@]12CCCC=C1N(Cc1ccc(Cl)cc1Cl)C(=O)[C@H](CC(=O)NCC13CC4CC(CC(C4)C1)C3)C2	-1.4%
CC(=O)C[C@@H]1SC[C@H](c2ccccc2)N1S(=O)(=O)c1ccc(C)cc1	-4.7%
O=C(Nc1c(Cl)cc([N+](=O)[O-])cc1Cl)c1cc(Cl)cc(Cl)c1O	-18%
O=C1NC[C@@H](CCCCN2C[C@H](Cc3ccc(O)cc3)N(Cc3ccccc3)C(=O)C2=O)N(Cc2ccccc2)C1=O	1.2%
Cn1c(=O)c2c(-c3ccccc3)n(-c3cc([N+](=O)[O-])ccc3N)cc2n(C)c1=O	0.5%
Cc1ccc(Cn2cc(CN(C)C3CN(Cc4cn(Cc5ccc(C)cc5)nn4)S(=O)(=O)C3)nn2)cc1 (stereo not drawn)	-1.7%
CCCNC(=O)c1cc(C2CCCCN2C(=O)c2ccc(NC(C)=O)cc2)on1 (stereo not drawn)	-1.1%
COc1ccc(CN(C)C(=O)[C@H]2O[C@@H](n3ccc(=O)[nH]c3=O)[C@H](O)[C@@H]2O)cc1OC	-3.0%
CN(C)c1ccc(/C=C/c2c3ccccc3cc[n+]2[O-])cc1	0.5%
CCCCNC(=O)C(NC(=O)c1cccnc1)C(=O)c1ccccc1 (stereo not drawn)	-1.1%
CCOC(=O)[C@]12CCCC=C1N(Cc1ccco1)C(=O)[C@H](CC(=O)NCC13CC4CC(CC(C4)C1)C3)C2	1.9%
CN(C)CCN(Cc1ccccc1)C(=O)c1[nH]c(C(F)(F)F)nc1-c1ccccc1	-0.4%
Cc1ccc(F)cc1C(=O)N1CCCCC1c1cc(C(=O)NCc2ccccc2)no1 (stereo not drawn)	-1.0%
O=C(NC1CCCC1)C(C1CC1)n1c(-c2ccncc2)nc2ccccc21 (stereo not drawn)	-22%
CNC(=O)C1Cc2c(-c3ccc4c(c3)OCO4)ccnc2O1 (stereo not drawn)	4.1%
O=C(NCc1ccncc1)c1csc([C@@H]2O[C@H](CO)[C@@H](O)[C@H]2O)n1	1.1%
COc1cc(N(C)C)c(OC)cc1C=C1C=CC=C1	-0.4%
CCOC(=O)[C@@H]1[C@H]2COc3ccccc3[C@@H]2N2C(=O)N(c3ccc(Br)cc3)C(=O)[C@@]12C	-2.3%
O=C(NCc1ccccc1)C(c1ccccc1)n1c(=O)c(-c2cc3ccccc3[nH]2)nc2ccccc21 (stereo not drawn)	3.2%
O=C1O[C@@H](c2ccccc2)C[C@@H](O)C(=O)CCCCc2ccccc21	0.7%
O=S1(=O)N[C@@H](Cc2ccccc2)COc2cc(N3CCC[C@@H]3CO)ccc21	-1.4%
CC(C)(C)c1ccc(C(O)c2ncc(-c3ccccc3Cl)[nH]2)cc1 (stereo not drawn)	0.4%
CCC(CC)C(=O)N(C)c1c(C)nc2c(OCc3cc(Cl)cc(Cl)c3)cccn12	-4.9%
CCc1nc2ccc(C(=O)Nc3cc(-c4ccccc4)ccc3OC)cn2c1N(CC)CC(=O)N(C)C	4.3%
COc1ccc(C(C)(NC(C)=O)c2nc(-c3cccc(C(F)(F)F)c3)cs2)cc1 (stereo not drawn)	1.0%
COc1ccc(CN2C[C@@H](CO)O[C@@H](n3cnc4c(NCc5ccco5)ncnc43)C2)cc1	1.4%
CCc1nc2c(OCCOc3ccc(F)cc3)cccn2c1N(C=O)Cc1ccc(OC)cc1	-6.3%
CCCCn1nnnc1C1(C)CCC(=O)N1c1ccc(N2CCOCC2)cc1 (stereo not drawn)	-0.8%
COc1ccc2c(c1)C(CC(C)=O)N(c1ccc(-c3cccnc3)cc1)C(c1ccsc1)=C2 (stereo not drawn)	5.5%
CC1(C(=O)NCc2ccc(Cl)cc2)CCN1C(=O)Cc1ccc(Cl)cc1Cl (stereo not drawn)	0.7%
C(=Nc1cccnc1)c1ccc2ccccc2n1	-13%
COC(=O)C1=CN(c2ccc3c(c2)OCO3)C(N)=C(C#N)C1c1cccc(F)c1 (stereo not drawn)	-4.4%
Cc1ccc2ccccc2c1C(O)c1ncc(-c2ccc(Cl)cc2)[nH]1 (stereo not drawn)	-7.7%
CCCNC(=O)C1(C)CCCN(C(=O)c2ccccc2OC(F)(F)F)C1 (stereo not drawn)	2.8%
CC(=O)Nc1ccc(C(=O)N2CCCCC2c2cc(C(=O)Nc3cccc(C#N)c3)no2)cc1 (stereo not drawn)	-1.1%
CC(C)Oc1ccc(F)cc1-c1cc(C(=O)Nc2ccc(C(C)(C)C)cc2)[nH]n1	-5.4%
CCc1cc(C(=O)/C=C/c2cc3c(cc2C)OCCO3)c(O)cc1O	-1.2%
CCCCNC(=O)C1(C)CCN1C(=O)c1ccc(C)c(F)c1 (stereo not drawn)	2.2%
Cc1cc2nc(NC(=O)C3(C)CCN3C(=O)C(C)C)[nH]c2cc1C (stereo not drawn)	0.5%
CN1OC[C@@H]2CN(Cc3ccc(Cl)cc3)[C@H](c3ccc(-n4ccnc4)cc3)C[C@@H]21	-2.8%
COc1ccc(C(C(=O)Nc2c(C)cccc2C)N2CCN(c3ccc(C)cc3)CC2)cc1 (stereo not drawn)	-22%
COC(=O)c1ccc2nc(-c3ccccc3)c(Cc3cccc(F)c3)n2c1	-21%
CCCCCCCCN1C(=O)[C@H](CC(=O)NCC23CC4CC(CC(C4)C2)C3)C[C@@]2(C(=O)OCC)CCC=C12	1.1%
CCCCNC(=O)C1C(c2ccccc2)=Nc2ccccc2N1C(=O)c1ccc2c(c1)OCO2 (stereo not drawn)	-17%
COC(=O)C[C@H]1N(S(=O)(=O)c2ccc(C)cc2)C(C(C)C)CC1(C(=O)OC)C(=O)OC (stereo partly drawn)	-3.4%
CCCc1nc2c(C)cc(Br)cn2c1Cc1ccc(C)cc1	-0.2%
O=C1c2ccccc2C(c2nnnn2Cc2ccccc2)N1Cc1ccco1 (stereo not drawn)	-1.6%
COC(=O)C1(C(=O)OC)C/C=C\CN(S(=O)(=O)c2ccccc2[N+](=O)[O-])CCC1	0.9%
Cc1ccc(S(=O)(=O)N2CC[C@H]3[C@@H](C2)C(=O)C[C@@H](c2ccccc2)N3S(=O)(=O)c2ccc(C)cc2)cc1	-0.1%
Cc1cc(F)cc(-c2cc(C(=O)NCc3cccc(Cl)c3)[nH]n2)c1	-3.5%
O=c1[nH]cnc2c1ncn2[C@H]1C[C@H](O)[C@@H](CO)O1	-0.7%
Following part:
SMILES	ClpP mod
COc1ccc(OCCNC(=O)C2(C)CCN2Cc2ccc(SC)cc2)cc1 (stereo not drawn)	0.4%
COc1ccc(C2Nc3ccccc3C(=O)N2c2ccc(F)cc2)cc1COc1ccc(NC(C)=O)cc1 (stereo not drawn)	4.5%
COC(=O)C1=CN(c2ccc(F)cc2)C(N)=C(C#N)C1c1ccc(-c2ccccc2)cc1 (stereo not drawn)	-18%
Nc1nc(NCc2ccccc2)c2[nH]cnc2n1	-3.8%&-8.4%
CCOC(=O)C1=C[C@@H](CC)N(S(=O)(=O)c2ccc(C)cc2)[C@H]1c1cccc(Cl)c1	-2.7%
c1ccc(Cn2nnnc2C(c2ccccc2)N2CCN(Cc3ccncc3)CC2)cc1 (stereo not drawn)	2.0%
CCOC1=C2CN(S(=O)(=O)c3ccc(C)cc3)C(c3cccc(Cl)c3)CC2N(S(=O)(=O)c2ccc(Cl)cc2)C(c2ccccc2)C1 (stereo not drawn)	0.1%
CC(C)C[C@H]1CN(CCCC[C@H]2CNC(=O)C(=O)N2Cc2ccccc2)C(=O)C(=O)N1CCC1CCCCC1	1.9%
OCc1ccc(-c2ccc3nccn3c2)cc1	4.5%
COc1ccc(C(C)C)cc1-c1ccc2nncn2c1	-17%
COc1cc(C(O)c2nc(-c3ccc(C)c(C)c3)cs2)ccc1F (stereo not drawn)	-6.5%
CC[N+](C)(C)c1ccc(/C=C/c2ccncc2)cc1	-0.3%

Given with bars between the fields: part of the list above
SMILES | ClpP mod
CCCNC(=O)c1cc(C2CCCCN2C(=O)c2ccc3ccccc3c2)on1 (stereo not drawn) | -0.2%
COc1cc(CN2C(=O)C(C)ON=C2c2ncccc2C)cc(OC)c1 (stereo not drawn) | 0.6%
O=C(NCc1cccs1)c1ccc2sc(COCCO)nc2c1 | -1.5%
COc1ccc2[nH]c(C)c(C(=O)CN(C)CC(OC)OC)c2c1 | -1.9%
CSc1nc(=O)[nH]c2nc[nH]c12 | -17%
CCCN1CNc2c(c(=O)[nH]c(=S)n2CCc2cccc(Cl)c2)C1 | -0.8%
Cc1cccc(C)c1NC(=O)C1c2ccccc2OCC(=O)N1Cc1ccc2c(c1)OCO2 (stereo not drawn) | 1.1%
CCc1nc2ccc(C(=O)NCc3ccccc3OC)cn2c1N(C)Cc1ccc(OC)cc1 | 1.3%
NC1CCc2ccccc21 (stereo not drawn) | -0.6%
COc1cc(C(O)c2nc(-c3ccccc3OC)cs2)ccc1F (stereo not drawn) | -0.3%
COCCNC(=O)C1(C)CCCN(Cc2cn(C)c3ccccc23)C1 (stereo not drawn) | -1.7%
O=C1NC[C@H](CCCCN2C[C@H](Cc3ccc(O)cc3)N(CCc3ccc(O)cc3)C(=O)C2=O)N(Cc2ccccc2)C1=O | -9.7%
Nc1ccccc1C(=O)NN=Cc1cccnc1 | 0.7%
COc1ccc(NC(=O)c2cc(-c3cc(F)ccc3OC)n[nH]2)c(OC)c1 | -11%
CN(C)c1ccc(/C=C/c2ccnc3ccccc23)cc1[N+](=O)[O-] | -0.3%
Oc1c(C(Nc2ccccn2)c2ccccc2)ccc2cccnc12 (stereo not drawn) | 2.6%
O=C(NCCN1CCC(n2c(=O)[nH]c3ccccc32)CC1)c1cccc(F)c1 | 1.9%
CC(C)C1C(=O)N(Cc2cn(CCC3OCCO3)nn2)CCS(=O)(=O)N1Cc1ccc(-c2ccccc2Cl)cc1 (stereo not drawn) | 0.4%
CCCNC(=O)C1(C)CCN(C(=O)c2cccc(C(F)(F)F)c2)C1 (stereo not drawn) | -1.7%
Cc1c(C(=O)NCc2ccc(C#N)cc2)sc(=O)n1Cc1ccccn1 | 0.7%
CCCc1c(Cc2cccc(F)c2)ncn1Cc1cccc(-c2ccccc2)c1 | -1.5%
CCOC(=O)[C@]12CCCC=C1N(Cc1ccc(Cl)cc1Cl)C(=O)[C@H](CC(=O)NCC13CC4CC(CC(C4)C1)C3)C2 | -1.4%
CC(=O)C[C@@H]1SC[C@H](c2ccccc2)N1S(=O)(=O)c1ccc(C)cc1 | -4.7%

(next part)
SMILES	ClpP mod
CC(C)C[C@H]1CN(CCCC[C@@H]2CNC(=O)C(=O)N2CCc2ccccc2)C(=O)C(=O)N1CCC1CCCCC1	-0.9%
OC(c1ccccc1)(c1nc(-c2ccc3c(c2)OCO3)cs1)C(F)(F)F (stereo not drawn)	-1.8%
OC(c1ccco1)c1nc(-c2cccs2)cs1 (stereo not drawn)	-1.1%
COc1ccc(CN2CCC2(C)C(=O)NCCNC(C)=O)c2ccccc12 (stereo not drawn)	-7.7%
Cc1ccc(S(=O)(=O)N2CCC(=O)N([C@H](COCc3ccc(C(F)(F)F)cc3)C(C)C)CC2)cc1	-2.0%
O=C(NCCc1ccccc1)c1cccc2c(-c3ccc(F)c(F)c3)coc12	-16%
CC(=O)N1CCC(C(=O)N2c3ccccc3N=C(c3ccc(C(F)(F)F)cc3)C2C(=O)NC(C)C)CC1 (stereo not drawn)	-5.4%
CC1=C(C(=O)N(C(C)C)C(C)C)CC(CC(=O)NCCCN(C)C)C(=O)N1Cc1ccccc1 (stereo not drawn)	-0.6%
COc1ccc2c(c1)c1nnc(SC(C)C)nc1n2C	-0.9%
